High-throughput results deposited in PubChem BioAssay by Broad Institute.
NOMO-1 viab = NOMO-1 AML cell viability reduction, primary screen, STK33 inhibitor project, CellTiter-Glo luminescence; AID 2330, 2010; 37,000 tested, 7.5% active; inhibition, % (no concentration beside the values); NOMO-1 AML viability, 72 h;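 active = most replicates above 80%; inconclusive = exactly half above 80%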;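 also: wells of about 30 µL received 25 nL stock; 0% = median of vehicle wells and 100% = reference inhibitor level; the first replicate is given; inactives centre near 10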
* = called active by the depositor; u = inconclusive.

SMILES	NOMO-1 viab
Cc1nn(CC(=O)Nc2ccc(C#N)cc2)c(C)c1[N+](=O)[O-]	13
COc1ccc(CN(C)C[C@H]2Oc3ccc(NC(=O)Nc4cccc5ccccc45)cc3C(=O)N([C@H](C)CO)C[C@H]2C)cc1	-4
Cc1cc(C(=O)Nc2cccc3c2O[C@@H](CN(C)C)[C@H](C)CN([C@H](C)CO)C3=O)n(C)n1	-1
COc1cc(CCC(C)NC(=O)c2ccco2)ccc1OC(=O)c1ccco1 (stereo unspecified)	22
C[C@@H]1CCCCO[C@@H](CN(C)C(=O)c2ccccc2)[C@@H](C)CN([C@H](C)CO)C(=O)c2cc(NS(=O)(=O)c3ccccc3)ccc2O1	27
C[C@@H]1CN([C@@H](C)CO)C(=O)c2cc(NC(=O)CCCCCC(=O)Nc3ccccc3N)ccc2O[C@H]1CN(C)S(C)(=O)=O	11
CCN(CC(=O)Nc1cccc([N+](=O)[O-])c1)S(=O)(=O)c1ccc(Br)cc1	-21
CS(=O)(=O)N(CC(=O)Nc1cccc(Br)c1)c1ccccc1F	45
C[C@H]1CN([C@@H](C)CO)C(=O)c2cccc(NS(=O)(=O)c3cccs3)c2O[C@@H]1CN(C)C(=O)Nc1cccc2ccccc12	8
COc1ccc(NC(=O)CS(=O)(=O)Cc2ccccc2)c([N+](=O)[O-])c1	6
C[C@H](CO)N1C[C@H](C)[C@H](CN(C)C(=O)Nc2ccc(F)cc2)Oc2ccc(NC(=O)CCCCCC(=O)Nc3ccccc3N)cc2CC1=O	30
O=S(=O)(Nc1ncccn1)c1ccc(NC(=S)Nc2ccc3c(c2)CCC3)cc1	0
COc1ccc(S(=O)(=O)Nc2ccc3c(c2)CC(=O)N([C@@H](C)CO)C[C@@H](C)[C@@H](CN(C)CC2CCCCC2)O3)cc1	101*
COc1c(O[C@@H]2O[C@H](C(=O)O)[C@@H](O)[C@H](O)[C@H]2O)cc(O)c2c(=O)cc(-c3ccccc3)oc12	56
Cc1noc(C)c1NC(=O)N(C)C[C@@H]1Oc2ccc(NS(=O)(=O)c3ccc(Cl)cc3)cc2C(=O)N([C@@H](C)CO)C[C@H]1C	-28
COCCNC(=O)c1cc(-c2cccnc2)nc2ccc(Br)cc12	37
C[C@H]1CN([C@@H](C)CO)C(=O)c2cccc(NC(=O)Nc3ccc4c(c3)OCO4)c2O[C@H]1CN(C)Cc1ccc(C(F)(F)F)cc1	15
CCCCn1c(=O)c2c(ncn2CC(C)=O)n(CCCC)c1=O	32
C[C@@H]1CN([C@H](C)CO)C(=O)Cc2cc(NS(=O)(=O)c3ccc(F)cc3)ccc2O[C@@H]1CN(C)S(C)(=O)=O	10
COc1ccc(S(=O)(=O)N(C)C[C@H]2Oc3ccc(NC(=O)NC4CCCCC4)cc3CC(=O)N([C@@H](C)CO)C[C@H]2C)cc1	-5
O=C(O)c1cccc(S(=O)(=O)NCc2ccco2)c1	-3
C[C@@H]1CN([C@H](C)CO)C(=O)Cc2cc(NC(=O)C3CCCCC3)ccc2O[C@H]1CN(C)C(=O)Nc1cccc2ccccc12	-17
C=C1CCC2[C@](C)(CCC[C@]2(C)C(=O)O)[C@H]1CC/C(C)=C/C(=O)O (stereo partly specified)	0
Cc1noc(C)c1S(=O)(=O)Nc1ccc2c(c1)C(=O)N([C@H](C)CO)C[C@H](C)[C@H](CN(C)S(=O)(=O)c1ccc(Cl)cc1)OCCCC[C@@H](C)O2	u
Cc1noc(C)c1S(=O)(=O)Nc1ccc2c(c1)C(=O)N([C@H](C)CO)C[C@@H](C)[C@H](CN(C)Cc1ccc(C(F)(F)F)cc1)O2	10

The results go on:
SMILES	NOMO-1 viab
Cc1ccc2c(c1O)C(=O)c1ccc(O[C@@H]3O[C@H](CO[C@@H]4OC[C@@H](O)[C@H](O)[C@H]4O)[C@@H](O)[C@H](O)[C@H]3O)cc1C2=O	-2
CCn1c(SCC(=O)Nc2ccc(OC)c(Cl)c2)nnc1-c1ccc(C)cc1	21
COc1ccc(S(=O)(=O)Nc2ccc3c(c2)C(=O)N([C@H](C)CO)C[C@H](C)[C@H](CN(C)CC2CCCCC2)OCCCC[C@@H](C)O3)cc1	36
Cc1noc(C)c1NC(=O)N(C)C[C@@H]1Oc2c(NC(=O)Nc3ccc(C(F)(F)F)cc3)cccc2C(=O)N([C@H](C)CO)C[C@H]1C	26
Cc1cc(=O)[nH]c(Nc2nc(C)c3cccc(C)c3n2)n1	130*
Cc1noc(C)c1NC(=O)N(C)C[C@H]1Oc2c(NC(=O)Nc3ccccc3)cccc2C(=O)N([C@H](C)CO)C[C@@H]1C	-13
O=c1c2ccccc2cnn1Cc1n[nH]c(=S)n1-c1ccc2c(c1)OCCO2	-2
C[C@H]1CN([C@@H](C)CO)C(=O)c2cccc(NC(=O)Nc3ccc(F)cc3)c2O[C@@H]1CN(C)CC1CCCCC1	u
Cc1cc(I)ccc1NC(=O)Cn1ccc([N+](=O)[O-])n1	0
CNC[C@H]1Oc2c(NS(C)(=O)=O)cccc2C(=O)N([C@@H](C)CO)C[C@@H]1C	-2
COc1ccc(Cl)cc1NC(=O)CSc1nnnn1-c1ccc(C(=O)O)cc1	23
COc1ccc(NC(=O)N(C)C[C@@H]2Oc3ccc(NC(=O)CCN4CCOCC4)cc3C(=O)N([C@H](C)CO)C[C@@H]2C)cc1	2
O=C(NCCc1ccccc1)C1CC(=O)N(CCc2ccccc2)C(=Nc2ccc(F)cc2)S1 (stereo unspecified)	28
C[C@@H]1CN([C@H](C)CO)C(=O)c2cccc(NC(=O)c3ccc(-c4nccs4)cc3)c2O[C@@H]1CN(C)CC1CC1	26
C[C@@H]1CN([C@@H](C)CO)C(=O)c2cccc(NC(=O)C3CC3)c2O[C@@H]1CN(C)Cc1ccc(Cl)c(Cl)c1	6
Cc1nc(-c2cc(C#N)c(SCCNC(=O)c3ccc(Cl)cc3Cl)nc2C)cs1	42
O=C(CSc1ncn[nH]1)Nc1ccc(-c2nc3ccccc3s2)cc1	35
Cc1noc(C)c1S(=O)(=O)N(C)C[C@H]1Oc2ccc(NS(=O)(=O)c3cccs3)cc2CC(=O)N([C@H](C)CO)C[C@H]1C	22
Cc1noc(C)c1NC(=O)Nc1ccc2c(c1)CC(=O)N([C@H](C)CO)C[C@H](C)[C@H](CN(C)Cc1ccc(Cl)c(Cl)c1)O2	51
O=C1NCc2c1c1c3ccccc3[nH]c1c1[nH]c3ccccc3c21	97*
C[C@@H]1CN([C@@H](C)CO)C(=O)c2cc(NC(=O)NC3CCCCC3)ccc2O[C@H]1CN(C)Cc1ccc2c(c1)OCO2	10
CN1C(=O)C(CC(=O)Nc2ccc(Cl)cc2)N(Cc2ccco2)C1=S (stereo unspecified)	152*
C[C@H](CO)N1C[C@H](C)[C@@H](CN(C)S(=O)(=O)c2cccs2)Oc2ccc(NC(=O)CCC(F)(F)F)cc2C1=O	-5
C[C@@H]1CCCCO[C@@H](CN(C)Cc2ccc3c(c2)OCO3)[C@@H](C)CN([C@H](C)CO)C(=O)c2cc(NC(=O)NC3CCCCC3)ccc2O1	7
C[C@H](CO)N1C[C@H](C)[C@H](CN(C)Cc2ccc(C(=O)Nc3ccccc3N)cc2)Oc2ccc(NS(C)(=O)=O)cc2CC1=O	129*

Gathered by group, the entries above with an aryl thioether with sulfur outside any ring (four)
SMILES	NOMO-1 viab
CCn1c(SCC(=O)Nc2ccc(OC)c(Cl)c2)nnc1-c1ccc(C)cc1	21
COc1ccc(Cl)cc1NC(=O)CSc1nnnn1-c1ccc(C(=O)O)cc1	23
Cc1nc(-c2cc(C#N)c(SCCNC(=O)c3ccc(Cl)cc3Cl)nc2C)cs1	42
O=C(CSc1ncn[nH]1)Nc1ccc(-c2nc3ccccc3s2)cc1	35

(listing goes on)
SMILES	NOMO-1 viab
Cc1ccccc1Cn1cc(NC(=O)c2nc3ncccn3n2)cn1	10
COc1ccc(NC(=O)Nc2cccc3c2O[C@H](CN(C)Cc2ccc(Oc4ccccc4)cc2)[C@@H](C)CN([C@@H](C)CO)C3=O)cc1	51
CCC(=O)Nc1nonc1-c1nc2ccccc2n1Cc1cc(OC)ccc1C	130*
Cc1noc(C)c1NC(=O)Nc1cccc2c1O[C@H](CN(C)Cc1ccc(Oc3ccccc3)cc1)[C@H](C)CN([C@H](C)CO)C2=O	16
CCOC(=O)c1c(NC(=O)Cn2ccc([N+](=O)[O-])n2)sc(C)c1C	1
C[C@@H]1CN([C@H](C)CO)C(=O)Cc2cc(NC(=O)Nc3ccc4c(c3)OCO4)ccc2O[C@@H]1CN(C)S(C)(=O)=O	17
O=C(NCc1ccco1)C1CC(c2cccc(Br)c2)=NO1 (stereo unspecified)	32
C[C@@H]1CN([C@@H](C)CO)C(=O)c2cccc(NS(=O)(=O)c3ccc(F)cc3)c2O[C@H]1CN(C)S(=O)(=O)c1ccc(F)cc1	14
COc1ccc(CN2C(=O)C(O)(CC(=O)c3ccc(C)s3)c3ccccc32)cc1OC (stereo unspecified)	114*
C[C@H]1CN([C@@H](C)CO)C(=O)c2cccc(NS(=O)(=O)c3ccc(F)cc3)c2O[C@@H]1CN(C)C(=O)Nc1ccccc1	1
O=C(O)CSC12CC3CC(CC(C3)C1)C2	13
Cc1ccc(S(=O)(=O)N(C)C[C@H]2Oc3c(NC(=O)c4cnccn4)cccc3C(=O)N([C@H](C)CO)C[C@H]2C)cc1	-12
CC(Oc1cccc(NC(=O)c2ccc(Br)cc2)c1)C(=O)c1ccccc1 (stereo unspecified)	43
Cc1noc(C)c1NC(=O)Nc1ccc2c(c1)CC(=O)N([C@H](C)CO)C[C@@H](C)[C@H](CN(C)S(=O)(=O)c1ccc(F)cc1)O2	-3
COc1ccc(S(=O)(=O)N(C)C[C@H]2Oc3ccc(NC(=O)Nc4cccc5ccccc45)cc3CC(=O)N([C@@H](C)CO)C[C@H]2C)cc1	31
C[C@@H]1CN([C@@H](C)CO)C(=O)c2cccc(NS(C)(=O)=O)c2O[C@H]1CN(C)C(=O)Nc1ccccc1	11
C[C@@H]1CN([C@H](C)CO)C(=O)Cc2cc(NC(=O)CCCN(C)C)ccc2O[C@H]1CN(C)Cc1ccc(Oc2ccccc2)cc1	7
COc1ccc(S(=O)(=O)Nc2cccc3c2O[C@H](CN(C)C(=O)NC(C)C)[C@@H](C)CN([C@@H](C)CO)C3=O)cc1	15
Cc1noc(C)c1NC(=O)Nc1ccc2c(c1)C(=O)N([C@H](C)CO)C[C@H](C)[C@H](CN(C)Cc1ccc(C(=O)Nc3ccccc3N)cc1)OCCCC[C@@H](C)O2	35
C[C@@H]1CN([C@H](C)CO)C(=O)c2cccc(NC(=O)C3CCCCC3)c2O[C@H]1CN(C)C(=O)Nc1cccc2ccccc12	-2
Cc1ccc(NC(=O)CN(c2c(C)cccc2C)S(C)(=O)=O)cc1C	-8
COc1ccc(S(=O)(=O)N(C)C[C@@H]2Oc3ccc(NC(=O)NC(C)C)cc3C(=O)N([C@@H](C)CO)C[C@H]2C)cc1	5
C[C@H](CO)N1C[C@H](C)[C@H](CN(C)Cc2ccc(C(F)(F)F)cc2)Oc2c(NC(=O)c3ccc(-c4nccs4)cc3)cccc2C1=O	98*
CC(C)NC(=O)N(C)C[C@@H]1Oc2c(NC(=O)NC3CCCCC3)cccc2C(=O)N([C@H](C)CO)C[C@@H]1C	8
Cc1ccc(S(=O)(=O)Nc2ccc3c(c2)C(=O)N([C@@H](C)CO)C[C@@H](C)[C@H](CN(C)Cc2ccc(-c4ccccc4)cc2)O3)cc1	123*

A draw from above in order of length of the SMILES, highest first:
SMILES	NOMO-1 viab
COc1ccc(NC(=O)Nc2cccc3c2O[C@H](CN(C)Cc2ccc(Oc4ccccc4)cc2)[C@@H](C)CN([C@@H](C)CO)C3=O)cc1	51
C[C@@H]1CN([C@H](C)CO)C(=O)Cc2cc(NC(=O)CCCN(C)C)ccc2O[C@H]1CN(C)Cc1ccc(Oc2ccccc2)cc1	7
CCC(=O)Nc1nonc1-c1nc2ccccc2n1Cc1cc(OC)ccc1C	130*

Part of the list above, bar-delimited.
Molecule | NOMO-1 viab
COc1ccc(NC(=O)N(C)C[C@@H]2Oc3ccc(NC(=O)CCN4CCOCC4)cc3C(=O)N([C@H](C)CO)C[C@@H]2C)cc1 | 2
COc1ccc(S(=O)(=O)Nc2ccc3c(c2)C(=O)N([C@H](C)CO)C[C@H](C)[C@H](CN(C)CC2CCCCC2)OCCCC[C@@H](C)O3)cc1 | 36

Next section
SMILES	NOMO-1 viab
COc1ccc(S(=O)(=O)Nc2ccc3c(c2)CC(=O)N([C@@H](C)CO)C[C@H](C)[C@H](CN(C)Cc2ccc4c(c2)OCO4)O3)cc1	22
C[C@H]1CN([C@@H](C)CO)C(=O)Cc2cc(NS(C)(=O)=O)ccc2O[C@H]1CN(C)C	10
Cc1cccc(-n2ncc3ccccc3c2=O)c1	0
C[C@H]1CN([C@@H](C)CO)C(=O)c2cccc(NS(=O)(=O)c3ccc(Cl)cc3)c2O[C@H]1CN(C)S(C)(=O)=O	-11
Cc1noc(C)c1S(=O)(=O)N(C)C[C@H]1Oc2ccc(NC(=O)Nc3cccc4ccccc34)cc2CC(=O)N([C@H](C)CO)C[C@H]1C	22
CC(=O)Nc1ccc(S(=O)(=O)NC2=NCN(C)CN2)cc1	-2
C[C@@H]1CN([C@@H](C)CO)C(=O)c2cc(NC(=O)Cn3cnnn3)ccc2O[C@@H]1CN(C)C	9
CNC[C@@H]1Oc2c(NS(C)(=O)=O)cccc2C(=O)N([C@H](C)CO)C[C@@H]1C	-3
COc1ccc(NC(=O)COc2cc(C)cc(C)c2C)c([N+](=O)[O-])c1	-15
Cc1ccc(SCCCCSc2nc(C)cc(=O)[nH]2)cc1	-3
C[C@H](CO)N1C[C@H](C)[C@H](CN(C)C(=O)Nc2cccc3ccccc23)Oc2ccc(NC(=O)Nc3ccc(F)cc3)cc2C1=O	24
COc1ccc(Cl)cc1N=C1NC(=O)CC(C(=O)Nc2ccccc2)S1 (stereo unspecified)	-23
CNC[C@@H]1OCCCC[C@@H](C)Oc2ccc(NC(=O)CCCN(C)C)cc2C(=O)N([C@H](C)CO)C[C@@H]1C	-2

These rows are one share of the data; count on the stated rates, not on these rows.
